Compound activity deposited in PubChem by Johns Hopkins Ion Channel Center.
KCNQ2 pot = KCNQ2 (rat) channel potentiation | O88943 | CHO-K1 KCNQ2, FluxOR thallium flux fluorescence; stronger effect = higher value | B-score at 10 µM | hit rate 0.54% among 310,000;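 active = fluorescence ratio B-score at least 3 SD of library B-scores, with initial fluorescence B-score within 3 SD, cut at about 5.3 in these data; same plate scores as AID 2156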;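 also: B-score of peak minus minimum over baseline fluorescence ratio after K+ and Tl+ stimulus; positive B-score means potentiation of KCNQ2 with more thallium influx and brighter signal; only the inactives scoring about 0 or higher are listed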
Target sequence (O88943 whole entry, looked up): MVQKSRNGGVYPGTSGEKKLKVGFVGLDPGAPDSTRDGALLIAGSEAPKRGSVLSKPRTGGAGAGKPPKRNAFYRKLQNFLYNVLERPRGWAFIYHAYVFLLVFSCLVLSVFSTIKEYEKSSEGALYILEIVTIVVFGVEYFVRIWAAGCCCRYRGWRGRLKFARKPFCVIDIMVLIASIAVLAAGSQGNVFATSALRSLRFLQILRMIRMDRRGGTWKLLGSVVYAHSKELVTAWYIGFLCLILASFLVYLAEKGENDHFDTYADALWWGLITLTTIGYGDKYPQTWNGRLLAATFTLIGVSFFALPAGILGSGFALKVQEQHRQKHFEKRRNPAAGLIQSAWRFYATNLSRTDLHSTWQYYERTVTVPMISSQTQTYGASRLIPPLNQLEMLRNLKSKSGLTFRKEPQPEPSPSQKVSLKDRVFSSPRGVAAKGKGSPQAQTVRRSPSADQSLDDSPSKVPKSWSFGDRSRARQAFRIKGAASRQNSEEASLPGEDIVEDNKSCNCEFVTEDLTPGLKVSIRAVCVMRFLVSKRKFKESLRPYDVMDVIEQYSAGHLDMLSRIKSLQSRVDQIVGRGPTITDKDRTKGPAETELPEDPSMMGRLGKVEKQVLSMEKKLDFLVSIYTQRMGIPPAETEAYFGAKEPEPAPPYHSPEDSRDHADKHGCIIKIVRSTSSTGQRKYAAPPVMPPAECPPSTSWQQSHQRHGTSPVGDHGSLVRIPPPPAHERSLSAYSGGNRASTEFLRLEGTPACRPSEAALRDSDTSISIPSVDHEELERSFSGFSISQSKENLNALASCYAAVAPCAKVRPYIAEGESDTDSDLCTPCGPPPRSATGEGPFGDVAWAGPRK
KCNQ2 pot baseline = recorded beside KCNQ2 pot, whose call it bears; B-score; compound at 10 µM; measured here: initial fluorescence intensity artifact check;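 brightness before thallium and not channel activity; 0 = typical well and far values either way flag optical interference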
* = called active by the depositor. This is a subset; rates above refer to the full screens.

SMILES	KCNQ2 pot	KCNQ2 pot baseline
COC(=O)[C@@H]1C[C@H]2CC[C@H](O)C[C@H]2N1Cc1ccc(C)s1	0.2	0.83
Cc1occc1C(=O)N1CCN(S(C)(=O)=O)CC1	0.7	0.61
CC(=O)C1=C(C)NC(SCC(=O)c2cc(Cl)ccc2Cl)=C(C#N)C1c1ccco1 (stereo not given)	2.2	0.92
CC(=O)Nc1cc(NC(C)=O)cc(-c2nc3ccccc3[nH]2)c1	2.3	0.48
O=C(NNC(=O)C1CCN(Cc2ccccc2)CC1)c1cccc(Cl)c1	1.3	0.08
O=S(=O)(Nc1nccs1)c1cc(Cl)ccc1Cl	1	0.2
Nc1nc2ccccc2n1CCOc1ccc(F)cc1	3	-0.01
CC(NC(=O)CSc1ncccn1)c1ccc(Cl)cc1Cl (stereo not given)	1.5	-0.26
O=S(=O)(c1ccc(S(=O)(=O)N2CCOCC2)cc1)N1CCCC1	1	-1.1
Cc1cc(C(=O)COc2ccccc2C(N)=O)c(C)n1C	0.01	0.14
CCCCS(=O)(=O)/C=C\C=C/S(=O)(=O)CCCC	6.7*	1.3*
Cc1cccc(N2CCN(Cc3ccc([N+](=O)[O-])o3)CC2)c1C	0.52	-0.05
CCN(CC)C(=O)Cn1cc(S(=O)(=O)CC(=O)Nc2ccc(F)cc2F)c2ccccc21	0.03	-0.83
CS(=O)(=O)Nc1ccccc1C(=O)NC1CC2CCC1C2 (stereo not given)	0.52	-0.62
CCOc1ccc(S(=O)(=O)N2CCC(C(=O)N3CCOCC3)CC2)cc1Cl	0.84	0.02
Nc1ccccc1-c1nnc(-c2ccccc2N)n1N	1.2	0.32
COc1cc(OC)cc(C(=O)Nc2nnc(SCC(=O)NCC3CCCO3)s2)c1 (stereo not given)	0.21	-0.31
Cc1ccc(S(=O)(=O)N2CCCCC2)cc1NC(=O)COC(=O)c1ccc2c(c1)OCO2	0.03	-0.17
CN1CCN(C(=O)C2=C[C@@H](c3coc4ccccc4c3=O)C[C@@H](OCc3ccc(CO)cc3)O2)CC1	0.83	-2.2
Cn1ncc2c(NNC(=O)c3ccc(O)cc3)ncnc21	0.04	1.1
Fc1ccc(Nc2ncnc3sc4c(c23)CCC4)cc1F	0.37	-1.5
COc1ccc(NC(=O)CSc2nnc(-c3cccnc3)n2C)cc1	0.97	-0.22
Nc1c(Cl)cc(-c2csc(N3CCCC3c3nc4cc(Cl)c(N5CCCCC5)cc4n3CCCO)n2)cc1Cl (stereo not given)	20*	0.05*
Cc1c(C(=O)N2CCCC2)c(S(=O)(=O)N2CCCCC2)c(C)n1C	0.99	-0.64
O=C(NCc1ccco1)C(c1ccccc1)N(CC1CCCO1)C(=O)Cn1nnc2ccccc21 (stereo not given)	0.39	0.29
The listing continues.
SMILES	KCNQ2 pot	KCNQ2 pot baseline
NNC(=O)CSCc1nc(-c2ccc(Cl)cc2)cs1	0.6	1.2
COc1ccc(CCNc2nc(C)c(C(C)=O)s2)cc1OC	1.1	0.51
CCOC(=O)c1ccc(NC(=O)COc2ccc(S(=O)(=O)NC(C)(C)C)cc2)cc1	2.1	-0.5
CC(c1ccccc1)n1c(NCCCn2ccnc2)nc2c1c(=O)[nH]c(=O)n2C (stereo not given)	1.6	-0.12
COc1ccc(CCNc2c(C)c(C)nc3ncnn23)cc1	1.1	0.49
CC(C)CCN1CC(O)=C(c2nc(-c3ccc(Cl)cc3)cs2)C1=N	1.6	-0.79
COc1ccc(S(=O)(=O)N2CCC(C(=O)N[C@@H](C)C(=O)NCc3cccc(OC)c3)CC2)cc1	0.62	-0.41
O=C(N/N=C/c1ccccn1)c1ccncc1	1.7	0.68
CN1/C(=C\C=[N+](C)c2ccccc2)C(C)(C)c2ccccc21	1.4	-2.9
Nc1nnnn1/N=C/c1cc(Cl)cc(Cl)c1OCc1ccc(Cl)cc1Cl	0.89	0.14
Cc1c(C(=O)N(Cc2ccc(Cl)cc2)C2CCS(=O)(=O)C2)oc2ccccc12 (stereo not given)	0.06	-2
COc1cc2c(cc1OC)CN(C(=O)Cc1ccccc1)CC2	0.66	-0.32
COc1ccc(S(=O)(=O)N/N=C(/C)c2ccc(Cl)cc2)cc1	1.3	-0.34
COc1cccc(NC(=O)Nc2cc(Cl)ccc2C)c1	0.67	-1.9
COc1ccccc1NC(=S)NC1CCCCCC1	0.02	-0.38
O=c1c2ccc(Cl)cc2nc(-c2ccc([N+](=O)[O-])cc2)n1O	14*	1.2*
CCC(Sc1nc2ccccc2c(=O)[nH]1)C(=O)O (stereo not given)	0.1	-0.24
CC(=O)Oc1ccc(-c2csc(Nc3ccc(S(N)(=O)=O)cc3)n2)cc1	0.77	-1.7
Cc1nc2ccccc2nc1CSc1nncs1	2.2	-0.45
O=C(CN1CCCC1)Nc1ccc(NC(=O)Nc2ccccc2)cc1	0.4	-0.08
O=C(COc1ccc(Cl)cc1)N1CCN(S(=O)(=O)c2ccc(Cl)cc2)CC1	0.31	-0.74
O=c1[nH]cnc2c1sc(=S)n2-c1ccccc1	0.01	-2
CSc1ccccc1NC(=O)Nc1cccc(F)c1	4.5	0.61
COC(=O)c1ccc(NC(=O)CCN2CCOCC2)cc1	1.1	1.5
O=c1oc2ccccc2c(Nc2ccccc2O)c1[N+](=O)[O-]	1.7	-1.4
(next part)
SMILES	KCNQ2 pot	KCNQ2 pot baseline
CCOc1ccc(N(CC(=O)NC2CC3CCC2C3)S(=O)(=O)c2ccccc2)cc1 (stereo not given)	0.44	0.53
CC(C)CN1CCC(=O)N(CCO)CC1	0.53	0.21
Cc1cccc(OCC(O)Cn2ccnc2C)c1 (stereo not given)	2.5	-0.6
COc1ccc(-n2nc(C(=O)NCC(=O)N3CCN(c4ccccc4)CC3)c3ccccc3c2=O)c(OC)c1	0.19	-0.35
FC(F)Sc1ccc(-n2cc(-c3ccccc3)[n+]3c2CCC3)cc1	0.32	-2.8
O=C(c1cccc(NS(=O)(=O)c2ccc(F)c(F)c2)c1)N1CCN(Cc2ccccc2)CC1	1.1	-1.4
Cn1cnnc1SCC(=O)Nc1ncc(C(F)(F)F)cc1Cl	1	-1.8
CC(=O)NC(=S)Nc1ccc(NC(=O)COc2ccc(Cl)cc2Cl)cc1	0.79	0.07
CC(=O)NC(Cc1cccc(F)c1)C(=O)NC1CCN(C(=O)Nc2ccccc2)CC1 (stereo not given)	1.7	-0.22
O=C1CC(c2ccc(OCCCCCOc3ccc(C4CC(=O)NC4=O)cc3)cc2)C(=O)N1 (stereo not given)	0.49	-1.1
CCCCCOC(=O)C1=C(C)NC(=O)NC1c1ccc([N+](=O)[O-])cc1 (stereo not given)	1	-1.4
O=C(N=Nc1c(O)[nH]c2ccc(Cl)cc12)c1cc(-c2cccs2)nc2ccccc12	0.56	-0.02
COc1ccc(S(=O)(=O)Nc2cccc(C)n2)c2ccccc12	0.7	0.47
COCc1cc(OC)nc(-c2csc(C)n2)n1	1.4	0.8
COc1ccccc1NC(=O)c1ccc(N2CC3CC(C2)c2cccc(=O)n2C3)c(NC(=O)c2ccncc2)c1 (stereo not given)	0.38	0.31
O=C(Nc1cc(S(=O)(=O)N2CCCC2)ccc1OCC(F)(F)F)c1ccccc1F	0.34	2.7
O=C(O)c1cc(N/N=C/c2c(O)ccc3ccccc23)ccc1Cl	1	1.8
Cc1cc(N2C(=O)c3ccc(C(=O)Nc4ccccc4O)cc3C2=O)no1	0.52	0.22
CC(CNC(=O)c1cncc(O)c1)NC(=O)c1cncc(O)c1 (stereo not given)	1.2	-0.03
CCOc1ccc(NC(=O)COc2ccccc2)c([N+](=O)[O-])c1	0.27	-0.75
COc1c(S(=O)(=O)NCCCN2CCOCC2)ccc(Cl)c1Cl	0.57	0.04
CCOC(=O)c1sc(N/N=C/c2cc(Br)c(O)c(OC)c2)nc1C	0.02	-0.77
COc1ccc(NC(=O)Nc2cccc(NC(C)=O)c2)c(OC)c1	0.21	0.09
CCC(C)OC(=O)C1=C(C)OC23OC(N)=C(C#N)C12C(=O)c1ccccc13 (stereo not given)	0.6	-1.3
Cc1nc(SCC(=O)Nc2c(C)nn(C)c2C)c2cnn(-c3ccccc3)c2n1	0.77	0.01

Laid out differently: results already given
The line under a structure holds: KCNQ2 pot, KCNQ2 pot baseline
> CCCCCOC(=O)C1=C(C)NC(=O)NC1c1ccc([N+](=O)[O-])cc1 (stereo not given)
  1, -1.4
> O=C(N=Nc1c(O)[nH]c2ccc(Cl)cc12)c1cc(-c2cccs2)nc2ccccc12
  0.56, -0.02
> COc1ccc(S(=O)(=O)Nc2cccc(C)n2)c2ccccc12
  0.7, 0.47
> COCc1cc(OC)nc(-c2csc(C)n2)n1
  1.4, 0.8
> COc1ccccc1NC(=O)c1ccc(N2CC3CC(C2)c2cccc(=O)n2C3)c(NC(=O)c2ccncc2)c1 (stereo not given)
  0.38, 0.31
> O=C(Nc1cc(S(=O)(=O)N2CCCC2)ccc1OCC(F)(F)F)c1ccccc1F
  0.34, 2.7
> O=C(O)c1cc(N/N=C/c2c(O)ccc3ccccc23)ccc1Cl
  1, 1.8
> Cc1cc(N2C(=O)c3ccc(C(=O)Nc4ccccc4O)cc3C2=O)no1
  0.52, 0.22
> CC(CNC(=O)c1cncc(O)c1)NC(=O)c1cncc(O)c1 (stereo not given)
  1.2, -0.03
> CCOc1ccc(NC(=O)COc2ccccc2)c([N+](=O)[O-])c1
  0.27, -0.75
> COc1c(S(=O)(=O)NCCCN2CCOCC2)ccc(Cl)c1Cl
  0.57, 0.04
> CCOC(=O)c1sc(N/N=C/c2cc(Br)c(O)c(OC)c2)nc1C
  0.02, -0.77
> COc1ccc(NC(=O)Nc2cccc(NC(C)=O)c2)c(OC)c1
  0.21, 0.09
> CCC(C)OC(=O)C1=C(C)OC23OC(N)=C(C#N)C12C(=O)c1ccccc13 (stereo not given)
  0.6, -1.3
> Cc1nc(SCC(=O)Nc2c(C)nn(C)c2C)c2cnn(-c3ccccc3)c2n1
  0.77, 0.01

Next records:
SMILES	KCNQ2 pot	KCNQ2 pot baseline
OCCCCC#Cc1c(-c2ccsc2)sc2ccccc12	0.05	2.3
CCOC(=O)N1CCN(C(=O)CNC(=O)c2ccc(Br)o2)CC1	1.4	-1.2
COc1ccc(NS(=O)(=O)c2ccc3c(c2)NC(=O)CCS3)cc1Cl	0.97	1.1
CCN1CCN(c2ccc(NC(=O)Cc3ccccc3)cc2)CC1	0.4	0.69
O=C(C1CC1)N1N=C2CCCCC2C1(O)C(F)(F)F (stereo not given)	0.5	0.11
COc1ccc(C(=O)C2CCCN(Cc3cccn3-c3ccccn3)C2)cc1F (stereo not given)	1.6	-0.31
CCN(CC)c1ccc(NC(=O)CN(C)Cc2cccs2)cc1	2	1.4
Oc1ccc(/C=N/N2CCN(Cc3ccccc3)CC2)cc1	1	-0.17
CN(/N=C/c1cccs1)c1cc(=O)n(C)c(=O)[nH]1	0.71	-0.03
CS(=O)(=O)c1ccc2nc(NC(=O)c3ccc(Cn4cc(Br)cn4)o3)sc2c1	0.02	0.55
CCOc1ccc(-n2c(=S)sc3c(=O)[nH]c(SCC(=O)NCc4ccco4)nc32)cc1	0.7	0.03
CC1(C)CC(=O)C(C=NCC(O)c2ccccc2)=C(O)C1 (stereo not given)	0.46	-0.85
O=C(Cc1cccc(C(F)(F)F)c1)Nc1ccccc1	9*	2.8*
CCOC(=O)C(=O)N1CCN(c2cc3c(cc2[N+](=O)[O-])n(C)c(=O)n3C)CC1	0.07	0.52
CCCC(O)(c1ccccc1)C(CN1CCOCC1)c1ccccc1 (stereo not given)	0.46	0.24
O=C(CSc1nnnn1-c1cccc2ccccc12)Nc1ccc(C(=O)O)cc1	0.9	-0.54
CC(=O)Nc1cccc(NC(=O)CSc2nc(C3CC3)nc3ccccc23)c1	0.03	1.2
COc1cccc(C(=O)Nc2cc(=O)n(C)c(=O)n2C)c1OC	0.48	0.52
N=C(N)Cc1ccccc1Sc1ccccc1	1.2	1.3
Cc1nc2ccccc2c2nc(NC(=O)Cc3ccccc3)nn12	1.2	-0.49
O=C(Nc1ccc(Cl)cc1)NC1CCS(=O)(=O)C1 (stereo not given)	1.6	-0.05
CN(C(=O)COC(=O)/C=C/c1ccc(C(F)(F)F)cc1)C1CCS(=O)(=O)C1 (stereo not given)	1.3	1.1
O=C(c1ccco1)N1CCN(S(=O)(=O)c2ccccc2)CC1	0.09	-0.19
COc1ccc(N2CCN(C(=O)c3ccc(Br)cc3)CC2)c([N+](=O)[O-])c1	0.38	-1.2
COc1ccccc1NC(=S)NC(NC(C)=O)C(Cl)(Cl)Cl (stereo not given)	0.7	-0.62
(further entries)
SMILES	KCNQ2 pot	KCNQ2 pot baseline
COc1ccc(NC(=O)CN(C)C(=O)CNC(=O)c2cccs2)cc1	0.2	0.44
CC1Cc2ccccc2N1C(=O)CN(C)S(=O)(=O)c1cccc2cccnc12 (stereo not given)	0.1	2.2
CC(NC(=O)CSc1nc2ccccc2n1C)c1ccccc1 (stereo not given)	0.95	1.1
COc1ccc(/C(O)=C2/C(=O)C(=O)N(CCN(C)C)C2c2cccnc2)cc1C (stereo not given)	1.2	-0.14
COc1ccc(S(=O)(=O)NCCSCc2ccco2)cc1OC	0.31	-0.53
COc1ccc(/C=N\NC(=O)C2COc3ccccc3O2)cc1O (stereo not given)	0.62	-0.02
CCOc1ccc(N(C(C)C(=O)N/N=C(\C)C(C)(C)C)S(C)(=O)=O)cc1 (stereo not given)	0.79	-2.8
O=C(CN(c1ccccc1)S(=O)(=O)c1ccccc1[N+](=O)[O-])Nc1cccnc1	2.8	-0.86
Cc1cc(=O)[nH]c(N/N=C/c2c(C)nn(-c3ccccc3)c2Cl)n1	0.57	0.06
COc1ccc(/C=C/C2=CC(C)(C)NC(=S)N2)cc1OC	0.05	-1.1
CCCn1c(=O)c(C(=O)NNC(=O)c2ccc(Cl)cc2Cl)c(O)c2ccccc21	0.57	1.9
COc1c(Cl)ccc(Cl)c1C(=O)NC(=O)N1CCOCC1	2.1	-2.5
CC1(C)CC(NC(=O)C(=O)NCCc2ccccc2)CC(C)(C)N1	1.7	-0.81
CCOC(=O)N1N=C(C)CC1(O)c1ccc(Cl)cc1 (stereo not given)	1.5	-2.1
COCCn1c(SCC(=O)Nc2ccc(OC)cc2)nnc1-c1ccoc1C	0.11	0.71
